GIV Gai3 FP: inhibitors of GIV peptide binding to Galpha-i3, primary screen, biochemical, fluorescence polarization, FITC-GIV GBA peptide, rat Galphai3 | 90 min; hits give low values; scaled: aluminum fluoride 0%, vehicle 100% | percent of control (FP), % (concentration not given with the values) | 210,000 compounds, 0.42% hits | AID 1224905, 2016;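 active = replicate mean at 85% of control or lower, very high polarization wells dropped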;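 also: wells of about 15 µL received 100 nL stock; the first replicate is given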
Target sequence (P08753 whole entry, looked up): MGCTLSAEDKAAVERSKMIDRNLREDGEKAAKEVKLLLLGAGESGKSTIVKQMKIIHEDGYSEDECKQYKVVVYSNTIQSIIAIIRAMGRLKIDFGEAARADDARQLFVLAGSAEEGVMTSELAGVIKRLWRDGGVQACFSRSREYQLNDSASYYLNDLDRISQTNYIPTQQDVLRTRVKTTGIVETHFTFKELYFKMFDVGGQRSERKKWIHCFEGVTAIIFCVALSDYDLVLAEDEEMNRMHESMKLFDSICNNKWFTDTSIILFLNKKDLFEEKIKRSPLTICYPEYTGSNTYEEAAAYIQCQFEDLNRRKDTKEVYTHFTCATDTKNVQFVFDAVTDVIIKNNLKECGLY
* hit, by the source's call.

Results for CC(=O)Nc1ccc2nc(N3CCC(C(=O)N4CCN(C5CCCCC5)CC4)CC3)cc(C)c2c1 ?
GIV Gai3 FP: 98

How did O=C(c1ccc(F)c(F)c1)N1CCN(C(=O)c2cc3cc(Br)ccc3[nH]2)CC1 do in these assays?
GIV Gai3 FP: 100

Results for Cc1c(Br)cc2nc(-c3ccccc3)c(-c3ccccc3)nc2c1C ?
GIV Gai3 FP: 100

Results for Cc1ccc(N2C(=O)/C(=C/c3ccc(Cl)cc3)C=C2c2ccccc2)c(Br)c1 ?
GIV Gai3 FP: 113

Results for Cc1cc(=O)oc2c1ccc1oc(Nc3ccccc3)cc12 ?
GIV Gai3 FP: 110

Results for COc1ccc(C2(c3nc(-c4ccc5c(c4)nnn5CCC(=O)N4CCCC4)no3)CC2)cc1 ?
GIV Gai3 FP: 104

What do the screens show for `COc1ccc(/C=C2\C=C(c3ccccc3)N(c3ccc(Cl)cc3)C2=O)cc1Br`?
GIV Gai3 FP: 106

How did CCOc1ccc(-n2c(=S)sc3c2nc(SCC(=O)NC2CCCCC2)n2c4ccccc4nc32)cc1 do in these assays?
GIV Gai3 FP: 99

What do the screens show for `COc1cccc(C2N(Cc3ccccc3)CCN2Cc2ccccc2)c1`?
GIV Gai3 FP: 108

Results for Cc1ccc(CN2CCN(C3CCN(C(=O)Nc4cc(C)ccc4C)CC3)C(=O)C2=O)cc1 ?
GIV Gai3 FP: 97

Results for O=C(NCc1ccc2c(c1)OCO2)c1ccc(-c2cc(N3CCCC3)ncn2)cc1 ?
GIV Gai3 FP: 102

How did Cc1ccc(N2COc3ccc4c(C)cc(=O)oc4c3C2)cc1 do in these assays?
GIV Gai3 FP: 108

Results for Cc1[nH]c(C)c(S(=O)(=O)N2CCC3(CC2)OCCO3)c1-c1nc(C2CC2)no1 ?
GIV Gai3 FP: 110

What do the screens show for `O=C(Cn1cccc1-c1nc(-c2ccccc2)cs1)NCc1cccnc1`?
GIV Gai3 FP: 104

Results for CCCCCCNC(=O)c1c[nH]c2ccc(S(=O)(=O)N(C)c3ccc(Br)cc3)cc2c1=O ?
GIV Gai3 FP: 112

Results for CN(CCc1ccccn1)C(=O)c1cc2nc(-c3ccc(F)cc3)cc(C(F)(F)F)n2n1 ?
GIV Gai3 FP: 113

How did COC(=O)c1ccc(NC(=O)/C(=C/c2ccc3c(c2)OCO3)NC(=O)c2ccc(C)c(C)c2)cc1 do in these assays?
GIV Gai3 FP: 108

Results for CNC(=O)c1ccc(-c2nc3cc(NS(=O)(=O)c4ccc(F)cc4F)ccc3n2C)cc1 ?
GIV Gai3 FP: 104

How did CCOc1ccccc1NC(=O)c1cc(S(=O)(=O)N2CCN(c3cccc(C)c3C)CC2)ccc1F do in these assays?
GIV Gai3 FP: 104

What do the screens show for `O=c1c2cc3c(cc2nc(SCc2nc(-c4ccc(F)cc4)no2)n1C1CCCC1)OCO3`?
GIV Gai3 FP: 104

How did C#CCSc1nn2c(=O)c(C)nnc2s1 do in these assays?
GIV Gai3 FP: 104

How did O=C(CC(SCc1ccco1)c1ccc(C(F)(F)F)cc1)c1ccco1 (stereo not given) do in these assays?
GIV Gai3 FP: 103

What do the screens show for `O=S(=O)(NCc1ccccc1Cl)c1ccc2[nH]c3nc4nc(-c5ccc(Br)cc5)cn4nc3c2c1`?
GIV Gai3 FP: 184

Results for CS(=O)(=O)N1CCC(C(=O)N2CCCCC2)Oc2ccccc21 (stereo not given) ?
GIV Gai3 FP: 103

How did COC(=O)COc1ccc(C(C2=C(O)CC(C)(C)CC2=O)C2C(=O)CC(C)(C)CC2=O)cc1 (stereo not given) do in these assays?
GIV Gai3 FP: 106

What do the screens show for `CN(C)S(=O)(=O)N(CC(=O)NC1CCCCC1)c1ccc(F)cc1`?
GIV Gai3 FP: 108

Results for COc1ccccc1C1OCC2C(C)C=C(C)C1C2C (stereo not given) ?
GIV Gai3 FP: 109

How did CCOc1cccc2cc(-c3nnc(NCc4ccccc4)s3)c(=O)oc12 do in these assays?
GIV Gai3 FP: 103

Results for CCOC(=O)c1c(CN2CCN(Cc3ccccc3)CC2)n(-c2ccccc2)c2cc(Br)c(OC)cc12 ?
GIV Gai3 FP: 106

What do the screens show for `Cc1cc(C2CCCN2Cc2cn(C)nc2C)no1` (stereo not given)?
GIV Gai3 FP: 111

Ordered by SMILES length (lowest first): some entries from above.
What do the screens show for `Cc1cc(C2CCCN2Cc2cn(C)nc2C)no1` (stereo not given)?
GIV Gai3 FP: 111

Results for COc1ccccc1C1OCC2C(C)C=C(C)C1C2C (stereo not given) ?
GIV Gai3 FP: 109

Results for CS(=O)(=O)N1CCC(C(=O)N2CCCCC2)Oc2ccccc21 (stereo not given) ?
GIV Gai3 FP: 103

Following part.
How did NC(=O)c1nc(Nc2ccccc2)sc1NC(=O)c1cc2cc(Cl)ccc2[nH]1 do in these assays?
GIV Gai3 FP: 130

How did O=C(Cn1cccc1-c1nc(-c2ccc(Cl)cc2)cs1)N1CCc2ccccc21 do in these assays?
GIV Gai3 FP: 101

What do the screens show for `O=C(CSc1nc2c(sc(=S)n2Cc2ccco2)c(=O)n1-c1ccccc1)Nc1nccs1`?
GIV Gai3 FP: 115

Results for O=C1CCCc2c1cc(C(=O)NCc1cccnc1)c(=O)n2-c1ccc(F)cc1 ?
GIV Gai3 FP: 102

Results for CCOC(=O)c1c(NC(=S)NC2CCCCC2)sc2c1CC(C)(CC)OC2 (stereo not given) ?
GIV Gai3 FP: 108

How did CC1=C(C(=O)OC2CCCC2)C(c2coc3ccccc3c2=O)C2=C(CC(c3cccs3)CC2=O)N1 (stereo not given) do in these assays?
GIV Gai3 FP: 98

Results for COc1ccc(C2SCCN2S(=O)(=O)c2ccc(Cl)cc2)cc1OC (stereo not given) ?
GIV Gai3 FP: 104

Results for Cc1ccc(NC(=O)CSC2=C(C#N)C(c3cccs3)C3=C(CCCC3=O)N2)cc1C (stereo not given) ?
GIV Gai3 FP: 103

How did Cc1c(C(=O)N2CC=C(c3ccccc3)CC2)sc2nc[nH]c(=O)c12 do in these assays?
GIV Gai3 FP: 98

How did COc1ccc(OC)c(C2NC(=O)NC(C)=C2C(=O)Nc2ccccc2Cl)c1 (stereo not given) do in these assays?
GIV Gai3 FP: 101

How did Cc1onc(-c2cccc(Br)c2)c1C(=O)Nc1ccc2c(c1)OCO2 do in these assays?
GIV Gai3 FP: 114

What do the screens show for `Cc1ccccc1NC(=O)C1CCCN(C(=O)c2nn(C)c3c2CN(C(=O)CC2CCCC2)CC3)C1` (stereo not given)?
GIV Gai3 FP: 103

What do the screens show for `CCOC(=O)c1c(CNC(C)=O)n(CC(=O)OC)c2cc(Br)c(OC)cc12`?
GIV Gai3 FP: 110

What do the screens show for `O=C(C1CCCN(S(=O)(=O)Cc2ccc(Cl)cc2)C1)N1CCN(Cc2ccc3c(c2)OCO3)CC1` (stereo not given)?
GIV Gai3 FP: 100

Results for C=CCSc1c(CC(C)C)cnc2c1c(=O)n(C)c(=O)n2C ?
GIV Gai3 FP: 105

How did Cc1ccc(CCNC(=O)c2c[nH]n3c(=O)c(Cc4cc(C)ccc4C)c(C)nc23)cc1 do in these assays?
GIV Gai3 FP: 109

Results for CC(=O)Nc1ccc(S(=O)(=O)Nc2cc(C(=O)N(C)C3CCCCC3)ccc2N2CC3CC(C2)c2cccc(=O)n2C3)cc1 (stereo not given) ?
GIV Gai3 FP: 108

How did Cc1cc(-c2ccco2)c(C#N)c(SCC(=O)c2ccc(O)c(O)c2)n1 do in these assays?
GIV Gai3 FP: 110

How did CCS(=O)(=O)N1CCN(c2nc(C)cc(N3CCOCC3)n2)CC1 do in these assays?
GIV Gai3 FP: 103

Results for CCN1CCCC1CNC(=O)CCNC(=O)Cn1cnc2ccccc2c1=O (stereo not given) ?
GIV Gai3 FP: 110

Results for CCOc1ccc(-c2nn3c(=O)c(NC(=O)c4ccc(C)cc4)cnc3o2)cc1 ?
GIV Gai3 FP: 104

Results for Clc1cccc(C2N(Cc3ccccc3)CCN2Cc2ccccc2)c1 ?
GIV Gai3 FP: 111

How did O=C1C2OCC(O2)[C@H]2[C@H]1[C@H]1C=Cc3ccccc3N1[C@@H]2C(=O)c1ccc(F)cc1 (stereo not given in full) do in these assays?
GIV Gai3 FP: 155

How did CCc1nnc(-c2sccc2C)o1 do in these assays?
GIV Gai3 FP: 102

What do the screens show for `COc1ccc(-c2cn3ccc(C)cc3n2)cc1Br`?
GIV Gai3 FP: 103

What do the screens show for `COc1ccc(-c2cc(-c3cccs3)nc3sc4c(O)cc(=O)[nH]c4c23)cc1`?
GIV Gai3 FP: 125

What do the screens show for `Cc1ccc(Cl)cc1NC(=O)CCc1nc(CSc2nc3ccccc3s2)no1`?
GIV Gai3 FP: 112

How did Cc1ccc(CNC(=O)C2CCN(c3cncnc3N3CCOCC3)CC2)o1 do in these assays?
GIV Gai3 FP: 103

What do the screens show for `Cc1ccc(N2C(=O)C(N3C(=O)c4cccc([N+](=O)[O-])c4C3=O)C2c2cccs2)cc1Cl` (stereo not given)?
GIV Gai3 FP: 104

How did Cc1ccc(C2=Nc3ccccc3NC(c3ccc(Cl)cc3)C2)cc1 (stereo not given) do in these assays?
GIV Gai3 FP: 107

What do the screens show for `Cc1ccc(-c2[nH]nc3c2C(C(=O)c2ccc(Br)cc2)CC(=O)N3)cc1` (stereo not given)?
GIV Gai3 FP: 92

What do the screens show for `COC(=O)c1ccc2c(=O)n(CCc3ccc(S(N)(=O)=O)cc3)c(SCC(=O)NC3CCCCC3)nc2c1`?
GIV Gai3 FP: 112

What do the screens show for `O=c1c2sc(=S)n(Cc3ccco3)c2nc(SCc2cc(=O)n3cc(Cl)ccc3n2)n1-c1ccc(F)cc1`?
GIV Gai3 FP: 114

What do the screens show for `CC1CCN(CCNC(=O)c2nc(-c3ccc(S(=O)(=O)N4CCOCC4)cc3)no2)CC1`?
GIV Gai3 FP: 105

Results for CC1NC(=O)N(C)C2NC(=O)N(C)C(c3ccccc3)C12 (stereo not given) ?
GIV Gai3 FP: 105

What do the screens show for `O=S(=O)(c1ccc(-c2nnc(C3CCC3)o2)o1)N1CCN(c2ccc(F)cc2)CC1`?
GIV Gai3 FP: 114

Results for CCc1ccc(-c2[nH]ncc2CN2CCCC2c2cc(C(C)C)no2)cc1 (stereo not given) ?
GIV Gai3 FP: 113

What do the screens show for `O=C(Nc1ccc(Cl)cc1)C(Cc1ccccc1)N1C(=O)C2C3c4ccccc4C(c4ccccc43)C2C1=O` (stereo not given)?
GIV Gai3 FP: 120

What do the screens show for `CCS(=O)(=O)N1CCCC(c2nnc(C(=O)Nc3ccc(F)cc3)s2)C1` (stereo not given)?
GIV Gai3 FP: 98

How did Cc1ccc(F)cc1S(=O)(=O)Nc1cccc(-c2ccc3ccccc3n2)c1 do in these assays?
GIV Gai3 FP: 99

In the list so far, two have a cyano group:
Results for Cc1ccc(NC(=O)CSC2=C(C#N)C(c3cccs3)C3=C(CCCC3=O)N2)cc1C (stereo not given) ?
GIV Gai3 FP: 103

How did Cc1cc(-c2ccco2)c(C#N)c(SCC(=O)c2ccc(O)c(O)c2)n1 do in these assays?
GIV Gai3 FP: 110

Structural class: the entries above with a CF3 group (two)
Results for CN(CCc1ccccn1)C(=O)c1cc2nc(-c3ccc(F)cc3)cc(C(F)(F)F)n2n1 ?
GIV Gai3 FP: 113

How did O=C(CC(SCc1ccco1)c1ccc(C(F)(F)F)cc1)c1ccco1 (stereo not given) do in these assays?
GIV Gai3 FP: 103

Later entries:
What do the screens show for `Cc1cc(N2CCCC2)nc2ccc(NC(=O)CC3CCCC3)cc12`?
GIV Gai3 FP: 107

How did O=C(O)CN1C(=O)C2C3c4ccccc4C(c4ccccc43)C2C1=O (stereo not given) do in these assays?
GIV Gai3 FP: 107

How did Cc1onc(-c2ccc(Br)cc2)c1C(=O)NCc1cccnc1 do in these assays?
GIV Gai3 FP: 106

How did COc1ccc(Cl)cc1-n1c(=S)sc2c(=O)[nH]c(SCC(=O)NCC3CCCO3)nc21 (stereo not given) do in these assays?
GIV Gai3 FP: 118

Results for CCOC(=O)c1[nH]c(C)c(CN(Cc2ccc(C)cc2)C(=O)Nc2cc(OC)ccc2OC)c1C ?
GIV Gai3 FP: 102

How did CCCCN(C)S(=O)(=O)c1cc(-c2nnc(C3CCCC3)o2)co1 do in these assays?
GIV Gai3 FP: 97

What do the screens show for `O=C(c1cccc(Br)c1)N1CCN(C(=O)c2cc3ccccc3[nH]2)CC1`?
GIV Gai3 FP: 103

Results for Cc1ccc2nc(-c3ccccc3)c(NC(=O)c3ccco3)n2c1 ?
GIV Gai3 FP: 97

Results for CCOc1cccc(CN2C(=O)c3ccccc3CC2(C)C(=O)NCc2ccccc2C)c1 (stereo not given) ?
GIV Gai3 FP: 102

Results for O=C(Nc1c2c(nn1-c1ccc(F)cc1)CS(=O)(=O)C2)C1(c2ccc(Cl)cc2)CCCC1 ?
GIV Gai3 FP: 110

Results for O=C(Nc1ccc(C(=O)N2CCOCC2)cc1)c1nn2c(C(F)(F)F)cc(-c3ccccc3)nc2c1Br ?
GIV Gai3 FP: 109

What do the screens show for `CCCN1C=NS(=O)(=O)c2cc(C(=O)NC(C)(C)C)ccc21`?
GIV Gai3 FP: 107

Results for Cc1ccc(-c2nccc(Oc3ccc(C(=O)Nc4ccc5c(c4)OCCO5)cc3)n2)cc1 ?
GIV Gai3 FP: 101

Results for COC(=O)C1=CN(C)c2cc(N3CCC(Cc4ccccc4)CC3)c(F)cc2S1(=O)=O ?
GIV Gai3 FP: 103

What do the screens show for `Cc1ccc(S(=O)(=O)NCc2nc3cccnc3n2Cc2ccccc2)cc1C`?
GIV Gai3 FP: 112

How did COc1ccc(Cl)cc1N1C(=O)C2C(c3ccc(C)cc3)OC3(C(=O)c4ccccc4C3=O)C2C1=O (stereo not given) do in these assays?
GIV Gai3 FP: 121

What do the screens show for `Cc1cc(C(=O)N2CCCC2c2cc(C(C)C)no2)on1` (stereo not given)?
GIV Gai3 FP: 99

Results for COc1ccccc1-n1c(CNC(=O)c2ccc(C)c([N+](=O)[O-])c2)nnc1SCC(=O)Nc1nnc(C)s1 ?
GIV Gai3 FP: 101

What do the screens show for `CCOC(=O)CNC(=O)Cn1c(-n2nc(C)cc2C)nc2c(c1=O)CCC2`?
GIV Gai3 FP: 108

Screening results: PubChem BioAssay, ICCB-Longwood Screening Facility, Harvard Medical School

A portion of the library; the hit share may differ from the screen's.
